Bioassay records: PubChem BioAssay, Broad Institute
UUG fidelity = modulators of yeast start codon fidelity, primary screen, whole organism, S. cerevisiae, single point, plate reader. S. cerevisiae UUG-firefly luciferase reporter, luminescence/redox ratio. activity score, % at 18.7 µM. actives 0.13% (n = 350,000). AID 602363, 2012;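 active = replicate mean at a twofold rise or more, about +100% in these data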;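 also: firefly luciferase made from a UUG start codon reports start codon fidelity; reporter light over untreated wells divided by growth signal over untreated wells; some hits fall short of that in this replicate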
Env fusion inh = inhibitors of HIV-1 Env-driven cell-cell fusion, primary screen, HeLa-JRFL effector, CEM21 target cells, luciferase; inhibition, % at 12.3 µM; actives 1.1% (n = 360,000);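 active = mean replicate inhibition score of at least 50 and every replicate individually at or above 50; inconclusive = only one of the two criteria met; inactive = mean below 50 and not all replicates reaching 50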;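 also: 0% = plate neutral controls and 100% = maraviroc near 300 nM; one replicate is shown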
An asterisk follows results filed as active; ? = inconclusive; [ ] = another dose, or the depositor's remark. Only part of the results is shown; rates above refer to the full screens.

SMILES | UUG fidelity | Env fusion inh
C[C@@H]1CCCCO[C@@H](CN(C)C(=O)Nc2ccc(C(F)(F)F)cc2)[C@@H](C)CN([C@H](C)CO)C(=O)c2cc(NC(=O)CCCCCC(=O)Nc3ccccc3N)ccc2O1 | -4 | -14[16.7 µM]
C[C@@H]1CN([C@@H](C)CO)C(=O)c2cccc(NS(C)(=O)=O)c2O[C@@H]1CN(C)Cc1ccncc1 | -5 | -8[16.7 µM]
C[C@H](CO)N1C[C@H](C)[C@@H](CN(C)Cc2ccncc2)Oc2ncc(C#CC3CCCCC3)cc2C1=O | -9 | -5[16.7 µM]
CCCNC(=O)N1[C@@H](C#N)[C@H](c2ccc(C#Cc3cccc(F)c3)cc2)[C@@H]1CO | -6 | 20[16.7 µM]
CCCNC(=O)C[C@@H]1CC[C@H]2[C@@H](COc3ccc(NC(=O)NCC)cc3C(=O)N2C)O1 | -4 | 13[16.7 µM]
COc1ccc(S(=O)(=O)N[C@@H]2CC[C@@H](CC(=O)NCc3ccccc3F)O[C@@H]2CO)cc1 | -3 | -14[16.7 µM]
COc1ccc(S(=O)(=O)Nc2ccc3c(c2)C(=O)N([C@@H](C)CO)C[C@H](C)[C@H](CN(C)S(=O)(=O)c2ccccc2)O3)cc1 | 13 | 15[16.7 µM]
C[C@@H]1CCCCO[C@@H](CN(C)C(=O)c2ccccc2)[C@H](C)CN([C@@H](C)CO)C(=O)c2cc(NC(=O)Nc3ccc4c(c3)OCO4)ccc2O1 | 0 | -19[16.7 µM]
C[C@@H]1CCCCO[C@@H](CN(C)C(=O)Nc2ccc3c(c2)OCO3)[C@H](C)CN([C@H](C)CO)C(=O)c2cc(NC(=O)Nc3ccccc3)ccc2O1 | -1 | -15[16.7 µM]
COc1cccc(-c2cn(CC[C@@H]3CC[C@H](NC(C)=O)[C@H](CO)O3)nn2)c1 | 10 | 8[16.7 µM]
COc1ccc(S(=O)(=O)N[C@H]2C=C[C@H](CC(=O)NCc3ccccc3F)O[C@H]2CO)cc1 | -5 | -8[16.7 µM]
C[C@@H]1CN([C@@H](C)CO)C(=O)c2cc(Br)cnc2O[C@@H]1CN(C)Cc1cccc(F)c1 | 47 | -11[16.7 µM]

Profiles, looked up by structure.
`CCCNC(=O)C[C@@H]1CC[C@H]2[C@@H](COc3ccc(NC(=O)NCC)cc3C(=O)N2C)O1` as listed: UUG fidelity: -4; Env fusion inh: 13[16.7 µM]
`CCCNC(=O)N1[C@@H](C#N)[C@H](c2ccc(C#Cc3cccc(F)c3)cc2)[C@@H]1CO` as listed: UUG fidelity: -6; Env fusion inh: 20[16.7 µM]

Carrying on.
SMILES | UUG fidelity | Env fusion inh
O=C(CC1CC1)Nc1ccc2c(c1)[C@H]1C[C@H](CC(=O)NC3CCCC3)O[C@@H](CO)[C@H]1O2 | -3 | 21[16.7 µM]
Cc1ccc(S(=O)(=O)Nc2ccc3c(c2)C(=O)N([C@H](C)CO)C[C@@H](C)[C@H](CN(C)C(=O)Nc2ccc(F)cc2)OCCCC[C@H](C)O3)cc1 | 13 | -43[16.7 µM]
CN(C)C(=O)C[C@H]1CC[C@@H](NC(=O)Nc2cccc(F)c2)[C@H](CO)O1 | -12 | 6[16.7 µM]
C[C@H](CO)N1C[C@H](C)[C@H](CN(C)S(=O)(=O)c2cn(C)cn2)Oc2ccc(NS(=O)(=O)c3cn(C)cn3)cc2CC1=O | -3 | 15[16.7 µM]
CCCN1C[C@H](C)[C@H](OC)CN(C)C(=O)c2cc(NC(=O)c3ccc(F)cc3)ccc2OC[C@@H]1C | 14 | 0[16.7 µM]
C[C@@H]1CCCCO[C@H](CN(C)C)[C@@H](C)CN([C@H](C)CO)C(=O)c2cc(N(C)C)ccc2O1 | -11 | 2[16.7 µM]
C[C@H]1CN([C@@H](C)CO)C(=O)c2cc(C#CC3(O)CCCC3)cnc2O[C@H]1CN(C)C(=O)Cc1cccnc1 | 23 | 6[16.7 µM]
C[C@H](CO)N1C[C@H](C)[C@H](CN(C)C(=O)Cc2ccccc2)OCCCC[C@H](C)Oc2ccc(NC(=O)Nc3ccc4c(c3)OCO4)cc2C1=O | -6 | -12[16.7 µM]
NC(N)=NCCCC(N)C(=O)CC(Cc1ccccc1)C(=O)O (stereo not given) | 9 | -16[16.7 µM]
C[C@@H]1CN([C@H](C)CO)C(=O)c2cc(N(C)C)ccc2O[C@@H]1CN(C)Cc1ccccc1 | -9 | -3[16.7 µM]
COCCNC(=O)C[C@H]1CC[C@H](NS(=O)(=O)c2ccc(C)cc2)[C@H](CO)O1 | -7 | 5[16.7 µM]
C[C@@H]1CN([C@H](C)CO)C(=O)c2cc(NC(=O)Cc3cn(C)c4ccccc34)ccc2O[C@H]1CN(C)C(=O)Nc1ccc(C(F)(F)F)cc1 | -8 | -7[16.7 µM]

The closing 4 entries of the section above lead into the next:
SMILES | UUG fidelity | Env fusion inh
NC(N)=NCCCC(N)C(=O)CC(Cc1ccccc1)C(=O)O (stereo not given) | 9 | -16[16.7 µM]
C[C@@H]1CN([C@H](C)CO)C(=O)c2cc(N(C)C)ccc2O[C@@H]1CN(C)Cc1ccccc1 | -9 | -3[16.7 µM]
COCCNC(=O)C[C@H]1CC[C@H](NS(=O)(=O)c2ccc(C)cc2)[C@H](CO)O1 | -7 | 5[16.7 µM]
C[C@@H]1CN([C@H](C)CO)C(=O)c2cc(NC(=O)Cc3cn(C)c4ccccc34)ccc2O[C@H]1CN(C)C(=O)Nc1ccc(C(F)(F)F)cc1 | -8 | -7[16.7 µM]
C[C@H](CO)N1C[C@H](C)[C@H](CN(C)Cc2ccccn2)Oc2cc(C#CC3CC3)ccc2S1(=O)=O | -12 | -17[16.7 µM]
C[C@@H]1CCCCO[C@H](CN(C)CC2CC2)[C@H](C)CN([C@H](C)CO)C(=O)c2cc(NC(=O)Nc3ccc(C(F)(F)F)cc3)ccc2O1 | 21 | 16[16.7 µM]
COc1ccccc1-c1ccc2c(c1)O[C@@H](CN(C)S(=O)(=O)c1ccc(C)cc1)[C@@H](C)CN([C@H](C)CO)S2(=O)=O | 2 | 28[16.7 µM]
C[C@H](O)C#Cc1cnc2c(c1)C(=O)N([C@@H](C)CO)C[C@@H](C)[C@@H](CN(C)C(=O)c1ccncc1)O2 | -16 | -2[16.7 µM]
O=C(C[C@H]1CC[C@@H](NS(=O)(=O)c2ccc(F)cc2)[C@H](CO)O1)NCCc1ccncc1 | -5 | -4[16.7 µM]
COc1ccc(C#Cc2ccc3c(c2)O[C@@H](CN(C)C(=O)NC2CCCCC2)[C@@H](C)CN([C@H](C)CO)S3(=O)=O)cc1 | -17 | 19[16.7 µM]
C[C@H]1CN([C@@H](C)CO)C(=O)c2cc(NC(=O)Nc3ccc(F)cc3)ccc2O[C@@H]1CN(C)S(=O)(=O)c1ccc(F)cc1 | 10 | 2[16.7 µM]
CO[C@@H]1CN(C)C(=O)c2cc(NC(C)=O)ccc2OC[C@H](C)N(Cc2ccccc2F)C[C@H]1C | -23 | 5[16.7 µM]
C[C@@H]1CN([C@H](C)CO)C(=O)c2cc(C#CC3(O)CCCC3)cnc2O[C@@H]1CN(C)C(=O)CN(C)C | -2 | -4[16.7 µM]
COc1ccccc1S(=O)(=O)N(C)C[C@@H]1Oc2cc(C#CCC(C)C)ccc2S(=O)(=O)N([C@H](C)CO)C[C@H]1C | -6 | 24[16.7 µM]
COc1cccc(NC(=O)N[C@@H]2CC[C@H](CC(=O)NCc3ccccn3)O[C@@H]2CO)c1 | -6 | -14[16.7 µM]
C[C@H](CO)N1C[C@H](C)[C@@H](CN(C)CC2CCOCC2)Oc2ncc(-c3ccc(C#N)cc3)cc2C1=O | 0 | -6[16.7 µM]
CC(C)NC(=O)N[C@H]1CC[C@H](CCNC(=O)C2CCC2)O[C@H]1CO | 136* | -27[16.7 µM]
O=c1n(-c2ccccc2)c(=O)n2n1CC(COc1ccccc1)=C([C@H](O)c1ccccc1)[C@@H]2CO | -6 | 6[16.7 µM]
O=C(C[C@@H]1C[C@H]2c3cc(NC(=O)C4CCC4)ccc3O[C@H]2[C@H](CO)O1)NCc1ccccc1F | -1 | -5[16.7 µM]
Cc1ccc(-c2ccc3c(c2)O[C@@H](CN(C)C(=O)CN(C)C)[C@@H](C)CN([C@H](C)CO)S3(=O)=O)cc1 | 31 | 9[16.7 µM]
CC(C)C(=O)Nc1ccc2c(c1)C(=O)N(C)[C@@H]1CC[C@H](CC(=O)N[C@H](C)c3ccccc3)O[C@@H]1CO2 | -1 | -12[16.7 µM]
COc1ccc(NC(=O)Nc2cccc3c2O[C@@H](CN(C)S(=O)(=O)c2ccc(Cl)cc2)[C@H](C)CN([C@@H](C)CO)C3=O)cc1 | -4 | -15[16.7 µM]
Cc1noc(C)c1NC(=O)N1C[C@@H](O)COC[C@@H]2O[C@H](CC(=O)NCC3CC3)CC[C@H]21 | -7 | 24[16.7 µM]
COc1ccc(S(=O)(=O)Nc2ccc3c(c2)C(=O)N([C@H](C)CO)C[C@H](C)[C@H](CN(C)C(=O)NC(C)C)O3)cc1 | 8 | 26[16.7 µM]
C[C@H]1CN([C@@H](C)CO)C(=O)c2cc(NC(=O)Cn3cnnn3)ccc2O[C@H]1CN(C)C(=O)Nc1ccccc1 | 5 | 34[16.7 µM]
Cc1ccc(S(=O)(=O)N(C)C[C@H]2OCCCC[C@@H](C)Oc3ccc(NC(=O)NC4CCCCC4)cc3C(=O)N([C@H](C)CO)C[C@@H]2C)cc1 | -7 | -3[16.7 µM]
COc1ccccc1C(=O)Nc1ccc2c(c1)C(=O)N(C)C[C@H](OC)[C@@H](C)CN(C(C)=O)[C@H](C)CO2 | -1 | 1[16.7 µM]
C/C=C/c1ccc2c(c1)O[C@@H](CN(C)C(=O)Nc1ccccc1)[C@H](C)CN([C@H](C)CO)S2(=O)=O | 11 | -2[16.7 µM]
C[C@@H]1CN([C@@H](C)CO)C(=O)c2cc(NC(=O)CCCN(C)C)ccc2O[C@@H]1CN(C)Cc1ccncc1 | -13 | 1[16.7 µM]
C[C@@H]1CN([C@H](C)CO)C(=O)c2cccc(NC(=O)c3cnccn3)c2O[C@H]1CN(C)C(=O)Nc1cccc2ccccc12 | 0 | 10[16.7 µM]
Cc1ccc(S(=O)(=O)N[C@@H]2CC[C@@H](CCn3cc(C4CCCC4)nn3)O[C@@H]2CO)cc1 | -22 | -6[16.7 µM]
C[C@@H]1CCCCO[C@@H](CN(C)C)[C@@H](C)CN([C@H](C)CO)C(=O)c2cc(NC(=O)NC3CCCCC3)ccc2O1 | -12 | 9[16.7 µM]
COc1ccc(S(=O)(=O)N(C)C[C@H]2OCCCC[C@@H](C)Oc3ccc(NS(=O)(=O)c4ccccc4)cc3C(=O)N([C@H](C)CO)C[C@H]2C)cc1 | 16 | 17[16.7 µM]
C[C@@H]1CCCCO[C@H](CN(C)CC2CCCCC2)[C@H](C)CN([C@@H](C)CO)C(=O)c2cc(NC(=O)CCC(F)(F)F)ccc2O1 | 24 | -12[16.7 µM]
C[C@H](CO)N1C[C@H](C)[C@@H](CN(C)C(=O)Nc2cccc3ccccc23)OCCCC[C@H](C)Oc2ccc(NC(=O)Cc3ccccc3)cc2C1=O | 18 | 6[16.7 µM]
COc1ccc(CN(C)C[C@@H]2OCCCC[C@H](C)Oc3ccc(NC(=O)CCC(F)(F)F)cc3C(=O)N([C@H](C)CO)C[C@@H]2C)cc1 | 9 | -21[16.7 µM]
COC(=O)C[C@@H]1CC[C@@H]2[C@@H](COc3ccc(NC(=O)c4cc(F)cc(F)c4)cc3C(=O)N2C)O1 | 10 | 15[16.7 µM]
C[C@@H]1CN([C@H](C)CO)C(=O)c2cc(NC(=O)Nc3ccccc3)ccc2O[C@@H](C)CCCCO[C@H]1CN(C)C(=O)C1CCCCC1 | 4 | 11[16.7 µM]
C[C@H]1CN([C@@H](C)CO)S(=O)(=O)c2ccc(C#CC3CCCC3)cc2O[C@@H]1CN(C)S(C)(=O)=O | 4 | 16[16.7 µM]
C[C@@H]1CN([C@@H](C)CO)C(=O)c2cc(Br)cnc2O[C@H]1CN(C)C(=O)c1ccccc1 | 13 | ?
Cc1noc(C)c1NC(=O)N(C)C[C@@H]1Oc2c(NS(=O)(=O)c3ccc(Cl)cc3)cccc2C(=O)N([C@@H](C)CO)C[C@@H]1C | 5 | ?
C[C@H](CO)N1C[C@H](C)[C@@H](CN(C)S(=O)(=O)c2ccccc2)Oc2ccc(NC(=O)Nc3cccc4ccccc34)cc2C1=O | 5 | 8[16.7 µM]
COc1ccc(S(=O)(=O)Nc2ccc3c(c2)C(=O)N([C@@H](C)CO)C[C@H](C)[C@H](CN(C)S(=O)(=O)c2ccc(C)cc2)OCCCC[C@@H](C)O3)cc1 | -7 | -36[16.7 µM]
CC(C)C#Cc1ccc2c(c1)O[C@@H](CN(C)C(=O)c1ccccn1)[C@H](C)CN([C@@H](C)CO)S2(=O)=O | 10 | -3[16.7 µM]
C[C@@H]1CCCCO[C@@H](CN(C)C(=O)C2CCCCC2)[C@@H](C)CN([C@H](C)CO)C(=O)c2cc(NS(=O)(=O)c3ccccc3)ccc2O1 | -9 | -4[16.7 µM]
CN(C)CCCNC(=O)C[C@H]1C=C[C@@H](NC(=O)Cc2cccnc2)[C@@H](CO)O1 | -11 | -13[16.7 µM]
C[C@H]1CCCCO[C@H](CN(C)C(=O)CCCN(C)C)[C@@H](C)CN([C@@H](C)CO)C(=O)c2cc(NC(=O)C3CCCCC3)ccc2O1 | 17 | 18[16.7 µM]
O=C(Nc1ccccc1F)N[C@H]1C=C[C@@H](CC(=O)N2CCCCC2)O[C@H]1CO | -16 | 31[16.7 µM]
